Screens as filed in PubChem.
E coli growth = E. coli growth inhibition | Escherichia coli growth, OD600, 23 h; stronger effect = lower value | AID 1053175 | OD600 absorbance (concentration not given with the values) | actives 0.21% (n = 330,000);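 active = OD600 absorbance below the run mean of sample wells minus 3.6 SD, in any replicate, cut at about 0.56 in these data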;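 also: stock transfer was 300 nL into about 60 µL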
UCH37 inh = blocks the human deubiquitinase UCH37. Q9Y5K5. purified proteasome/UCH37, Ub-AMC cleavage fluorescence. inhibition, % (no concentration beside the values). actives 0.33% (n = 330,000);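 active = mean of two replicates above 20%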;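 also: 0% = compound-free wells with enzyme and 100% = wells lacking proteasome; stock transfer was 100 nL into about 20 µL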
Target sequence (Q9Y5K5 whole entry, looked up): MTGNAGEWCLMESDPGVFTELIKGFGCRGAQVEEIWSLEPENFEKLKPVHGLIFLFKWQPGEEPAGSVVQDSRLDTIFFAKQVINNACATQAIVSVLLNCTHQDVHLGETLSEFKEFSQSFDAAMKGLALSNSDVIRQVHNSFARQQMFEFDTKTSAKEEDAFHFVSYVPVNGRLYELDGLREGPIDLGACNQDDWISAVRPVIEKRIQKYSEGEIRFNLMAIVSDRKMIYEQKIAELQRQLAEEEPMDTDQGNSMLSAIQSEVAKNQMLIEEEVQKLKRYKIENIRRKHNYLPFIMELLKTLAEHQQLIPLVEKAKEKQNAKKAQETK
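assay system = human UCH37 enzyme supplied as purified proteasome complex | amount = proteasome at 0.15 nM in the dispensed enzyme solution | schedule = 30 min compound-proteasome preincubation then 25 min substrate reaction, room temperature | measured by = fluorescence, ex 355 nm, em 460 nm | benchmarks = no-proteasome wells (full inhibition) and compound-free wells (no inhibition)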
FGF22 binding = FGF22 (human) thermal shift binding | recombinant FGF22 thermal shift, SYPRO orange fluorescence; percent of sucrose octasulfate shift, DMSO zero | calls only at 9.99 µM | actives 1.5% (n = 340,000);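 active = melting point raised past a set limit in the mean and every replicate; inconclusive = no clear call; three in four hits are not shown here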
Target sequence (Q9HCT0 whole entry, looked up): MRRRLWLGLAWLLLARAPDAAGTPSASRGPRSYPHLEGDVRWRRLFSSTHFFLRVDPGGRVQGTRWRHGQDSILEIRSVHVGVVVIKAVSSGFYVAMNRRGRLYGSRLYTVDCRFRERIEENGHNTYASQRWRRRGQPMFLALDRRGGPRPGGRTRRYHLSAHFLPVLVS
MLL AF4-AF9 inh = inhibitors of human MLL-AF4/AF9 interaction; actives 0.47% (n = 350,000); inhibition, % at 10 µM; AlphaScreen, biotin-AF4 peptide binding to FLAG-AF9;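 active = every replicate reaching a set inhibition limit, whatever the replicate mean, cut at about 25% in these data; inconclusive = mean inhibition reaches that limit but some replicates miss it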;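 also: 0% = plate neutral control median and 100% = total signal loss; the record names both 10 and 1 µM as test concentration; the first replicate is given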
Target sequence (P42568 whole entry, looked up): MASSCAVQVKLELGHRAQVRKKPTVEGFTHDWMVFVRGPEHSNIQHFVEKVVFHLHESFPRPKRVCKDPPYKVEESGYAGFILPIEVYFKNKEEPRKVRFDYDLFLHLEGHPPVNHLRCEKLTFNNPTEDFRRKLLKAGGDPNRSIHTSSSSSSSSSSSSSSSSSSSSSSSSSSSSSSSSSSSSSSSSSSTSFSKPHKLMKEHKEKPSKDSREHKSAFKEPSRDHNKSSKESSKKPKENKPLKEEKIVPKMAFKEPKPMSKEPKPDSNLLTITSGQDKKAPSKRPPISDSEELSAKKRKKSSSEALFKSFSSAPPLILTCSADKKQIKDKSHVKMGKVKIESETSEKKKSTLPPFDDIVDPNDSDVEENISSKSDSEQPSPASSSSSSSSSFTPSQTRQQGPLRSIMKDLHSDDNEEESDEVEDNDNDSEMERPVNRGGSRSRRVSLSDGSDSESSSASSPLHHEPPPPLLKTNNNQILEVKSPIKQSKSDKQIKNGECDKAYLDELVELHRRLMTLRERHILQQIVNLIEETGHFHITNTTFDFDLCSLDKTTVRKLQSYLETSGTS
HNF4A DNA FP = change in binding of human HNF4 alpha to DNA; HNF4a-FITC DNA binding, fluorescence polarization, 1 h; activity change, % at 10 µM; actives 0.3% (n = 360,000); in the data active = activity change above about 30%, passing the limit was not always enough;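 also: controls were the assay level and a saturating level of protein; the project sought stronger binding though the title names inhibitors; some compounds called inactive have numbers as strong as hits; positive values seem to mean higher polarization but the record does not say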
Vif TR-FRET = HIV-1 Vif–A3G interaction blockers – biochemical, TR-FRET, GST-Vif 1-94, biotin-A3G peptide, dose response retest, primary screen (AID 1117319); one-dose inhibition, %; IC50 in µM for titrated hits; actives 0.57% (n = 260,000); TR-FRET GST-Vif / biotin-A3G peptide binding; higher % means a stronger effect; test concentration not given here; strong numbers were not always called active;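 active = above the screen mean plus three standard deviations and confirmed in dose response; inconclusive = results disagree or hit not tested in dose response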;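 also: Vif residues 1-94 fused to GST binding biotinylated APOBEC3G peptide 110-148; 0% = full assay without inhibitor and 100% = GST in place of GST-Vif; retest series ran down from 100 µM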
RanGTP-Imp inh = inhibitors of RanGTP-importin-beta interaction, primary screen, biochemical, FRET, CFP-Ran, YFP-importin-beta, homogeneous; cell-free CFP-Ran/YFP-importin-beta FRET ratio; inhibition, % (no concentration beside the values); actives 1.1% (n = 300,000); AID 2216;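 active = most replicates above 15%; inconclusive = exactly half above 15%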;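 also: 0% = DMSO wells and 100% = Ran loaded with GDP instead of GTP; wells of about 40 µL received 100 nL stock; the first replicate is given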
An asterisk follows results filed as active; i = inactive; ? = inconclusive; . = not tested or not shown; & = joins results of further samples. An excerpt. The share of hits here may be higher or lower than overall.

Each structure is followed by: E coli growth	UCH37 inh	FGF22 binding	MLL AF4-AF9 inh	HNF4A DNA FP	Vif TR-FRET	RanGTP-Imp inh
> CCCCN(C(=O)c1ccccc1Cl)C(CC(C)C)c1nc2ccccc2[nH]1 (stereo unspecified)
 : .	.	i	0.6	1.1	.	.
> CCCn1c(SCC(=O)Nc2ccc(NC(C)=O)cc2)nc2c1c(=O)n(C)c(=O)n2C
 : 0.72	-1.1	i	-1.5	0.6	.	17*
> O=C1CC(NS(=O)(=O)c2ccc([N+](=O)[O-])cc2)CN1c1ccc(Cl)cc1 (stereo unspecified)
 : 0.66	2.7	i	0.7	-0.4	4%	1.5
> Cn1cc([C@]2(O)C(=O)N(c3ccccc3)c3ccccc32)c2ccccc21
 : .	.	i	6.9	2.6	.	.
> Cc1noc(C)c1CSCC(=O)N1CCN(c2ccc([N+](=O)[O-])cc2)CC1
 : 0.73	-2.2	.	.	2.0	5%	5.3
> COc1ccc(C2=CC(c3ccc(F)cc3)n3nnnc3N2)cc1 (stereo unspecified)
 : 0.69	-4.6	.	.	4.9	13%	3.4
> COC(=O)CCC(=O)c1ccn(S(=O)(=O)c2ccccc2)c1
 : 0.66	1.2	i	-0.5	1.4	5%	2.1
> CCn1c(CCNC(=O)c2ccc(C)cc2)n[nH]c1=S
 : 0.69	-3.1	.	.	0.4	4%	-0.2
> COc1ccccc1N1CCN(CC(O)COc2c(OC)cccc2OC)CC1 (stereo unspecified)
 : 0.68	1.2	.	.	-0.8	26%	24*
> Cc1cccc(-n2c(Cc3cc(=O)[nH]c(=O)[nH]3)nnc2SC(C)C)c1
 : 0.69	1.6	i	-11	-2.1	76%	-1.9

Pulled one by one from above, 2 records:
Each structure is followed by: E coli growth	UCH37 inh	FGF22 binding	MLL AF4-AF9 inh	HNF4A DNA FP	Vif TR-FRET	RanGTP-Imp inh
> COc1ccc(C2=CC(c3ccc(F)cc3)n3nnnc3N2)cc1 (stereo unspecified)
 : 0.69	-4.6	.	.	4.9	13%	3.4
> Cn1cc([C@]2(O)C(=O)N(c3ccccc3)c3ccccc32)c2ccccc21
 : .	.	i	6.9	2.6	.	.

The listing continues:
Each structure is followed by: E coli growth	UCH37 inh	FGF22 binding	MLL AF4-AF9 inh	HNF4A DNA FP	Vif TR-FRET	RanGTP-Imp inh
> COc1cc(C(=O)NCc2ccc(-c3nc4ccccc4s3)cc2)cc(OC)c1OC
 : .	.	i	-4.2	0.5	.	-3.0
> Cc1ccc(N2C(=O)CS/C2=C(\C(Cl)=C(Cl)Cl)[N+](=O)[O-])cc1
 : 0.66	4.1	i	2.1	21	?	-0.6
> CCC(C)(C(=O)NC1CCCCC1)N(C(=O)Cc1cccs1)c1ccccc1 (stereo unspecified)
 : 0.66	2.1	.	.	-0.4	-12%	8.1
> Cc1ccc(-c2csc3ncnc(Cl)c23)cc1
 : 0.66	1.3	i	1.9	-0.5	.	-3.9
> Cc1ccc(-c2cccc(CN3CCN(C4CCN(C(C)C)CC4)C(CCO)C3)c2)o1 (stereo unspecified)
 : 0.65	-0.1	i	18	3.4	4%	8.3
> C[C@H](CO)N1C[C@H](C)[C@@H](CN(C)C)Oc2c(NS(=O)(=O)c3ccc(F)cc3)cccc2C1=O
 : 0.79	4.0	i	-1.3&0.7	1.6	.	.
> COC(=O)C1=C(C)N=C2SC(C)C(=O)N2C1c1cccc(F)c1 (stereo unspecified)
 : 0.69	1.5	.	.	-0.5	32%	-1.6
> COc1ccc(NC2CCCN(C(=O)C3=NNC(=O)CC3)C2)cc1 (stereo unspecified)
 : .	.	i	-5.2	0.1	.	.
> Cc1ccc(NC(=O)O/N=C/c2ccc(F)cc2)cc1
 : .	.	i	1.4	3.2	8%	-0.7
> Cc1cccc(C(O)C(O)c2cccc(C)n2)n1 (stereo unspecified)
 : 0.68	0.8	i	3.7	21	-2%	.

Further results.
Each structure is followed by: E coli growth	UCH37 inh	FGF22 binding	MLL AF4-AF9 inh	HNF4A DNA FP	Vif TR-FRET	RanGTP-Imp inh
> CCc1cccc(NC(=O)CSC2=NS(=O)(=O)c3ccccc32)c1
 : 0.75	8.9	i	0.4	-0.8	-2%	-5.3
> CCCn1c(C(O)c2cccc(OC)c2)nc2ccccc21 (stereo unspecified)
 : 0.61	2.5	i	0.9	-2.2	.	-1.2
> Cc1ccc(CNCC(O)c2ccccc2)s1 (stereo unspecified)
 : 0.67	2.3	i	-6.3	1.7	.	3.6
> COc1ccc(Nc2nc(-c3ccccc3F)nc3ccccc23)cc1OC
 : 0.68	-16	i	9.8	-3.7	-8%	6.6
> CCOC(=O)CSc1nnc(CNC(=O)c2cc(OCC)c(OCC)c(OCC)c2)n1C
 : 0.65	3.0	.	.	-1.4	1%	.
> CCN(CC)S(=O)(=O)c1ccc(C(=O)N2CCCCC2)cc1
 : 0.71	-1.1	.	.	1.3	-7%	-2.9
> CNC[C@H](CC1CCCCC1)NC[C@H](Cc1ccccc1)NCCC12CC3CC(CC(C3)C1)C2
 : .	-0.3	i	40*	10	.	1.6
> CCC(C)C(NC(=O)OCc1ccccc1)C(=O)OCN1C(=O)c2ccccc2C1=O (stereo unspecified)
 : 0.7	2.7	.	.	-0.8	2%	2.4
> Cc1ccc(NC(=O)C/C(N)=N/OC(=O)c2ccccc2)cc1
 : 0.69	0.5	i	0.3	0.7	2%	-2.9
> CCCCCCN1C[C@H](n2cc(C3CC3)nn2)[C@@H](O)C[C@@H]1c1ccc(Cl)cc1
 : .	.	i	-2.8	0.2	2%	.

New compounds follow:
Each structure is followed by: E coli growth	UCH37 inh	FGF22 binding	MLL AF4-AF9 inh	HNF4A DNA FP	Vif TR-FRET	RanGTP-Imp inh
> O=C(Nc1ccccc1C(=O)N1CCCCC1)c1cccc(S(=O)(=O)N2CCOCC2)c1
 : 0.74	-1.0	.	.	1.4	1%	-1.3
> C#CCOCCOCCOCCNc1nc(N2CCN(C(=O)[C@H](CCCN=C(N)N)n3cc(C(N)[C@@H](C)CC)nn3)CC2)nc(N2CCN(C(=O)[C@H](CCCCN)n3cc([C@@H](N)CC(N)=O)nn3)CC2)n1 (stereo partly specified)
 : 0.82	3.3	i	37*	4.7	.	.
> Cc1nc(C)c(-c2ccn(S(=O)(=O)c3ccc(Cl)cc3)n2)o1
 : 0.67	2.9	i	2.3	0.1	.	4.4
> CC(=O)C1=C(c2ccccc2)OC(N)=C(C#N)C1c1ccc(O)cc1 (stereo unspecified)
 : 0.73	4.3	i	0.6	1.4	.	2.5
> CC(C)c1nnc(NC(=O)C2CCCN2S(=O)(=O)c2ccc(Cl)cc2)s1 (stereo unspecified)
 : 0.72	1.7	.	.	1.4	-5%	2.7
> O=S(=O)(c1ccccc1)c1cnn2c(C(F)(F)F)cc(-c3ccc(F)cc3)nc12
 : 0.69	i	.	.	-6.6	-10%	2.4
> CC(=O)C(Cl)C(=O)Nc1ccccc1 (stereo unspecified)
 : 0.53	-0.8	i	-2.3	4.5	?	.
> Cn1c(NCCc2ccncc2)nc2cc(-c3cccc(C(F)(F)F)c3)sc2c1=O
 : .	.	i	-6.2	0.7	.	.
> C[C@H](CO)N1C[C@H](C)[C@@H](CN(C)C(=O)NC2CCCCC2)Oc2ccc(NC(=O)CCC(F)(F)F)cc2C1=O
 : .	1.9	i	-2.2	-0.5	.	.
> O=C(Nc1ccc(N2CCN(C(=O)c3ccco3)CC2)c(Cl)c1)c1cccs1
 : 0.67	0.1	.	.	3.4	8%	2.0

The listing continues.
Each structure is followed by: E coli growth	UCH37 inh	FGF22 binding	MLL AF4-AF9 inh	HNF4A DNA FP	Vif TR-FRET	RanGTP-Imp inh
> O=C(CN1C(=O)c2ccccc2C1=O)OCC(=O)N1CCc2ccccc2C1
 : 0.69	1.7	.	.	-6.7	3%	-1.0
> COc1ccc(Cl)cc1NC(=O)CN(C)CC(=O)Nc1ccccc1N1CCOCC1
 : 0.7	1.2	i	-0.2	-1.4	.	3.4
> CCc1cc(C(=O)NC(C)C2CCCO2)cs1 (stereo unspecified)
 : 0.69	1.1	i	-2.7	1.1	.	0.7
> CC(C)C[C@@H](CO)N1CCN(CC(C)C)CCC1=O
 : 0.8	-2.4	.	.	-0.4	.	3.8
> CCCCc1nc(SCC(=O)Nc2cc(C)on2)n[nH]1
 : 0.7	5.0	.	4.4	-4.7	0%	-1.1
> CCOc1ccc(C(=O)NC(C(=O)NCC(c2cccs2)N(C)C)C(C)C)cc1 (stereo unspecified)
 : 0.63	-1.1	i	-1.2	-3.1	1%	.
> COc1ccc(C(=O)NC(CC(C)C)C(=O)O)cc1 (stereo unspecified)
 : 0.7	1.7	i	-2.8&-0.6	1.1	.	.
> CCOC(=O)N1CCN(CCC(=O)c2ccc(OC)cc2)CC1
 : 0.65	4.8	i	-3.8	2.4	15%	0.2
> C=CC[C@@H](CC(=O)N(CCO)Cc1ccccc1)C(=O)N[C@H](COC(=O)[C@@H](CC=C)Cc1ccc(F)cc1)c1ccccc1
 : .	0.1	i	-10	0.7	.	.
> Cc1ccc(S(=O)(=O)NN=Cc2cc(Cl)ccc2O)cc1
 : 0.63	1.2	i	-0.6	0.8	-5%	.

Laid out differently: 2 of the compounds above.
mol	E coli growth	UCH37 inh	FGF22 binding	MLL AF4-AF9 inh	HNF4A DNA FP	Vif TR-FRET	RanGTP-Imp inh
CCOc1ccc(C(=O)NC(C(=O)NCC(c2cccs2)N(C)C)C(C)C)cc1 (stereo unspecified)	0.63	-1.1	i	-1.2	-3.1	1%	.
COc1ccc(C(=O)NC(CC(C)C)C(=O)O)cc1 (stereo unspecified)	0.7	1.7	i	-2.8&-0.6	1.1	.	.

Remaining list, next part:
Each structure is followed by: E coli growth	UCH37 inh	FGF22 binding	MLL AF4-AF9 inh	HNF4A DNA FP	Vif TR-FRET	RanGTP-Imp inh
> CC(C)(O)C#Cc1ccc([C@@H]2C[C@H]3CN(c4ccccc4)C(=O)[C@]34CCCN24)s1
 : 0.68	1.8	i	1.8	14	19%	1.5
> O=C(CCC(=O)N1CCSc2ccccc21)Nc1ccc(F)cc1
 : 0.66	-0.9	i	-3.6	3.6	.	-4.0
> Cc1ccc(N=Cc2cc(Cl)cc(Cl)c2O)nc1
 : 0.65	1.1	i	-4.6	-6.3	1%	-7.9
> Cc1ccc(OCC(=O)Nc2ccc3c(c2)ncn3C)cc1
 : .	.	i	-1.0	-0.8	.	.
> Cc1ccc(NC(=O)C2CCN(C(=O)[C@@H]3Cc4ccccc4CN3)CC2)c(C)c1
 : 0.66	2.1	i	-3.3	3.5	.	-2.5
> COc1ccc(CC(=O)N(CCC2=CCCCC2)c2c(N)n(Cc3ccccc3)c(=O)[nH]c2=O)cc1
 : .	.	i	-6.1	0.2	.	.
> O=C(CC1NCCc2ccccc21)Nc1ccccc1 (stereo unspecified)
 : 0.73	1.2	i	0.2	1.0	-5%	7.4
> Cc1ncc(C[n+]2csc(CCOC(=O)CC34CC5CC(CC(C5)C3)C4)c2C)c(N)n1
 : 0.68	4.9	.	.	-0.6	23%	-1.7
> Cn1nnc(C(O)CNCc2ccc(Cl)cc2)n1 (stereo unspecified)
 : 0.67	0.7	i	-2.8	0.5	19%	4.7
> Cc1nn(Cc2ccccc2Cl)c(C)c1C(=O)NCCN1C(=O)S/C(=C\c2ccccc2)C1=O
 : 0.71	1.9	i	-1.4	2.6	13%	-3.6
> O=C(NCc1ccccc1OC(F)(F)F)C1CCC(=O)N(C2CC2)C1 (stereo unspecified)
 : 0.71	0.4	i	-2.8	1.9	-10%	6.2
> Cc1cc(C)c(C)c(S(=O)(=O)N2CCC(C(=O)NCCCN3CCOCC3)CC2)c1C
 : 0.72	5.1	i	-0.3	3.1	-8%	.
